Screening data: PubChem, several laboratories
Rce1 inh – blocks yeast Ras-converting enzyme; AID 2563; yeast membranes, quenched prenylated peptide cleavage fluorescence; calls only; Q03530; actives 0.27% (n = 290,000);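 active = fall in fluorescence gain of 50% or more versus controls, with final raw signal at or below 3038400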;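 also: plate controls were neutral control wells for no effect and wells lacking membranes for full effect; tested at 10 µM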
Target sequence (Q03530 whole entry, looked up): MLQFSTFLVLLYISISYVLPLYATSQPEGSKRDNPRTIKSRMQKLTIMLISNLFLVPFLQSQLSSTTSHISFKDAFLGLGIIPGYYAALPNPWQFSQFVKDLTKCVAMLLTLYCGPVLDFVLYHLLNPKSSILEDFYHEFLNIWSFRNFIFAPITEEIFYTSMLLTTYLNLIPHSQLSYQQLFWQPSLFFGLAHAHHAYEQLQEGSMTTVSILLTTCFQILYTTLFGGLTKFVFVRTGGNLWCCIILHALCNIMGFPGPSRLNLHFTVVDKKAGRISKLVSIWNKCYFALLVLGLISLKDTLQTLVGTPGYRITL
eIF4H inh – inhibitors of RNA binding by human eIF4H. Q15056. eIF4H fluorescence polarization binding assay. inhibition, % at 35 µM. actives 0.94% (n = 290,000). AID 2012;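 active = 50% or more with normal probe brightness, or confirmed in later tests; about a fifth of its hits are not listed in these tables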;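 also: calls also rest on retests at 20 µM and on dose response follow-up; 0% = protein and probe with vehicle and 100% = probe without protein; strong numbers were not always called active; many hits fall short of the cut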
MT1-MMP act inh – blocks activation of human MT1-MMP; HT1080 RFP-PRO-GFP cells, GFP/RFP ratio fluorescence, overnight; percent of plate control window, DMSO zero; AID 651647; GFP/RFP ratio change, % at 20 µM; P50281; actives 0.061% (n = 360,000);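 active = GFP/RFP ratio change of at least 30% with cell ATP level not reduced by more than half and red fluorescence within 50% of control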; also: strong numbers were not always called active
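system = RFP-PRO-GFP reporter HT1080 cells | dosing = 20 µM single dose, 1% DMSO | timing = overnight cell settling, then overnight compound exposure, 37 °C, 5% CO2 | read-out basis = GFP/RFP fluorescence ratio | controls = DMSO and RFP-L50D-GFP cell wells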
Env fusion inh – inhibitors of HIV Env-mediated cell fusion; HeLa-JRFL Env/CEM21 cell fusion, luciferase; inhibition, % at 12.3 µM; actives 1.1% (n = 360,000); AID 651610;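 active = mean replicate inhibition score of at least 50 and every replicate individually at or above 50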;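 also: 0% = plate neutral controls and 100% = maraviroc near 300 nM; one replicate is shown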
Yeast UUG start – yeast start codon fidelity modulation; actives 0.13% (n = 350,000); S. cerevisiae UUG-firefly luciferase reporter, luminescence/redox ratio; activity score, % at 18.7 µM;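 active = replicate mean at a twofold rise or more, about +100% in these data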;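 also: firefly luciferase made from a UUG start codon reports start codon fidelity; reporter light over untreated wells divided by growth signal over untreated wells; some hits fall short of that in this replicate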
PABP polyA inh – blocks human PABP binding to poly(A) RNA; P11940; fluorescence polarization; inhibition, % at 35 µM; actives 1% (n = 290,000); AID 2014;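 active = 50% or more with normal probe brightness, or confirmed in later tests; about a fifth of its hits are not listed in these tables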;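 also: calls also rest on retests at 20 µM and on dose response follow-up; controls were probe without protein and protein plus probe with vehicle; some compounds called inactive have numbers as strong as hits; many hits fall short of the cut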
Target sequence (P11940 whole entry, looked up): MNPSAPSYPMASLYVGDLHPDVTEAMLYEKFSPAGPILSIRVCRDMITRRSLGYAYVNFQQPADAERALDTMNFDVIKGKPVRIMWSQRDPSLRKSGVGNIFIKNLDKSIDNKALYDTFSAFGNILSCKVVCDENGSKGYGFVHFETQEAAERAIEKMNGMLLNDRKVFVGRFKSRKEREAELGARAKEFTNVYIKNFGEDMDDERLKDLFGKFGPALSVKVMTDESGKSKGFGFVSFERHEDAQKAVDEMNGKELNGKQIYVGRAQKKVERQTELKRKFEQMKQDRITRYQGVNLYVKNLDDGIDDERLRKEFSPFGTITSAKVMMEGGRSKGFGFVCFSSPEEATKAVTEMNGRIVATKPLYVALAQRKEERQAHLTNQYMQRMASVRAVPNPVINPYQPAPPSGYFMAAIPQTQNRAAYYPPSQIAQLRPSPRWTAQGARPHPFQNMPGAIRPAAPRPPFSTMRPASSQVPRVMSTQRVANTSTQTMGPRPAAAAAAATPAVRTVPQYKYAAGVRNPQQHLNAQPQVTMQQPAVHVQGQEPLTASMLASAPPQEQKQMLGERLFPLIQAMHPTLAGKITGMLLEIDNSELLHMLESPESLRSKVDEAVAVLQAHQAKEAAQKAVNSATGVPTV
CSC inhib – cancer stem cell inhibition. cancer stem cell-like cells viability, luminescence. inhibition, % at 7.5 µM. actives 1.1% (n = 300,000). AID 2717;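 active = mean at 75% or more and at least half the replicates too; tested in HMLE shEcad cells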;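 also: 0% = median of negative and 100% = median of positive control wells; the first replicate is given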
MT1-MMP act inh RFP – recorded beside MT1-MMP act inh, whose call it bears; RFP signal change, %; measured here: RFP expression control read;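 0 = vehicle wells; hits needed this value within 50% of zero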
Starred values were filed as active, the others as inactive; i = inactive; · = no result given. Random draw from the library; any-hit rate near 2.9%.

item	compound	Rce1 inh	eIF4H inh	MT1-MMP act inh	MT1-MMP act inh RFP
1	Cn1cc(C(=O)N/N=C/c2ccc(Br)c([N+](=O)[O-])c2)c2ccccc21	i	-2	5	3
2	C/C(=N\NC(=O)c1nnn(-c2nonc2N)c1-c1ccc(Cl)c(Cl)c1)c1ccncc1	i	2	20	-10
3	Cc1ccc(S(=O)(=O)N2CCCCC2CCNC(=O)C(=O)NCc2ccccc2C)cc1 (stereo unspecified)	i	·	-9	-14
4	Cc1cc(-c2ccccc2)nc(N/N=C/c2ccc(O)cc2)n1	·	·	6	-2
5	COc1ccccc1CN1[C@@H](CC(=O)O)c2ccccc2S1(=O)=O	i	·	0	4
6	CCOCCCNC(=O)C1CC(=O)N(CCc2ccc(C)cc2)C1 (stereo unspecified)	i	-11	0	2
7	COc1cccc2c1OCC/C2=N\NC(=O)C(C)Oc1ccc([N+](=O)[O-])cc1 (stereo unspecified)	i	-6	2	-1
8	Cc1cc(NC(=O)CSc2nnc(C3COc4ccccc4O3)n2N)no1 (stereo unspecified)	i	-10	2	5
9	CC(=O)Nc1ccc(-c2csc(Nc3cc(C)ccn3)n2)cc1	i	-5	-13	-26
10	CCOC(=O)C1(C)/C(=N/Nc2ccccc2)C(=O)C(=O)N1c1ccccc1 (stereo unspecified)	i	-3	1	3
11	CCCCn1c(SCC(=O)Nc2ccc(OC)cc2)nc2ccc(N3CCOCC3)cc2c1=O	i	-6	-1	6
12	O=C(CCC1CCCC1)NNC(=O)c1cccc(Cl)c1	i	-2	-1	-1
13	Cc1n[nH]c(=S)n1/N=C/c1cccc(OCc2ccccc2)c1	·	13	0	-2
14	CC12CN3CCN(CC(C3)C1(O)CN1CCCCC1)C2 (stereo unspecified)	i	4	-10	2
15	CC(=O)N1CC(=O)N(c2ccccc2)C1=O	i	-6	0	3

item	Env fusion inh	Yeast UUG start	PABP polyA inh	CSC inhib
1	7	-20	0	6
2	-21	-12	4	-3
3	13	-3	·	44
4	-36	-26	·	·
5	22	-4	·	2
6	-11	-2	2	2
7	-6	·	-7	2
8	-13	-10	-7	-1
9	-24	-18	-1	-4
10	-66	-4	20	15
11	14	-18	16	3
12	16	-13	-1	·
13	17	·	4	-2
14	·	-8	6	9
15	20	1	-3	-8

Sorted by molar mass (smallest number first): part of the list above.
item	compound	Rce1 inh	eIF4H inh	MT1-MMP act inh	MT1-MMP act inh RFP
15	CC(=O)N1CC(=O)N(c2ccccc2)C1=O	i	-6	0	3
9	CC(=O)Nc1ccc(-c2csc(Nc3cc(C)ccn3)n2)cc1	i	-5	-13	-26
10	CCOC(=O)C1(C)/C(=N/Nc2ccccc2)C(=O)C(=O)N1c1ccccc1 (stereo unspecified)	i	-3	1	3
7	COc1cccc2c1OCC/C2=N\NC(=O)C(C)Oc1ccc([N+](=O)[O-])cc1 (stereo unspecified)	i	-6	2	-1
1	Cn1cc(C(=O)N/N=C/c2ccc(Br)c([N+](=O)[O-])c2)c2ccccc21	i	-2	5	3
11	CCCCn1c(SCC(=O)Nc2ccc(OC)cc2)nc2ccc(N3CCOCC3)cc2c1=O	i	-6	-1	6

item	Env fusion inh	Yeast UUG start	PABP polyA inh	CSC inhib
15	20	1	-3	-8
9	-24	-18	-1	-4
10	-66	-4	20	15
7	-6	·	-7	2
1	7	-20	0	6
11	14	-18	16	3

(list continues)
item	compound	Rce1 inh	eIF4H inh	MT1-MMP act inh	MT1-MMP act inh RFP
16	O=C(Nc1cccc2ccccc12)c1cnccn1	i	-5	-1	4
17	COc1ccc(S(=O)(=O)NC(C)c2ccc3c(c2)OCCO3)cc1 (stereo unspecified)	·	·	-1	1
18	CCOc1ccc(NC(=O)CCN2CCCCC2)cc1	i	-11	-1	-3
19	COc1ccc(-n2c(C)cc(/C=C3/SC(=O)N(CC(=O)N4CCOCC4)C3=O)c2C)cc1	i	5	3	0
20	COc1ccc(C(=O)N(C)C(C)c2ccon2)cc1OC1CCN(C(C)C)CC1 (stereo unspecified)	·	2	-1	6
21	COc1ccc(C2/C=C\CN(CC(C)C)CC(=O)N2Cc2ccc(F)cc2)cc1 (stereo unspecified)	i	-5	-2	-3
22	CC(C)(C)C(=O)NCCc1nc(-c2ccccc2)no1	i	·	1	5
23	Cc1cc(O)ccc1-c1cc(C(=O)NCc2ccc(F)cc2)[nH]n1	·	·	4	-3
24	Cc1nnc(Sc2cc(C(=O)NC3CC3)c3ccccc3n2)s1	·	-7	-5	-1
25	COC(=O)c1ccc(-c2nc(CN3CCCN(C(=O)c4ccco4)CC3)c(C)o2)cc1	i	-5	-3	0
26	CCOC(=O)N1CCN(S(=O)(=O)c2ccc(C(=O)Nc3nnc(C4CC4)o3)cc2)CC1	i	12	-3	-1
27	Cc1c(O)nc2sc3ccccc3n2c1=O	i	22	·	·
28	CN1C(=O)C(=O)/C(=C(/O)c2ccc(Br)cc2)C1c1ccc(Cl)cc1 (stereo unspecified)	i	-2	-4	0
29	Cc1c(C(=O)NCc2ccccn2)oc2c(Cl)cccc12	·	·	·	·
30	Cc1nnc(NC(=O)c2ccc(Br)o2)s1	i	0	-5	0

item	Env fusion inh	Yeast UUG start	PABP polyA inh	CSC inhib
16	·	·	0	-9
17	-13	-6	·	·
18	20	-13	-1	·
19	13	·	4	-1
20	3	-24	-6	9
21	2	-5	0	-1
22	-14	-20	·	9
23	-10	-22	·	·
24	8	-12	-8	16
25	-21	17	3	4
26	7	·	-5	6
27	23	·	24	-16
28	-7	-6	-1	-9
29	-5	-35	·	-16
30	-5	-15	-5	-5

Additional structures follow.
item	compound	Rce1 inh	eIF4H inh	MT1-MMP act inh	MT1-MMP act inh RFP
31	CCn1c(CNC(=O)Cc2ccc(OC)cc2)n[nH]c1=S	i	-13	4	2
32	O=[N+]([O-])c1ccc(N2CCN(c3ccc(F)cc3)CC2)nc1	i	2	4	1
33	COc1cccc(NC(=O)c2ccc(Cn3cc([N+](=O)[O-])cn3)o2)c1	i	-5	-3	0
34	CCc1ccc(CN(C)C(=O)C2CCC(=O)N(Cc3ccccn3)C2)cc1 (stereo unspecified)	i	-16	-4	-1
35	C/C(Cl)=C\Cn1c(O)c(N=O)c2ccccc21	i	-1	-1	-1
36	CCOC(=O)Nc1ccc2c(COC(=O)c3ccccc3O)cc(=O)oc2c1	i	-1	1	1
37	Fc1ccc(-c2nc3ccccn3c2NCc2ccc3c(c2)OCO3)cc1	i	0	2	-3
38	O=C(NCc1ccco1)C(=O)NCC1OCCCN1S(=O)(=O)c1ccccc1 (stereo unspecified)	i	-5	0	5
39	CN(C)S(=O)(=O)c1ccc2nc(NC(=O)c3cccs3)sc2c1	i	0	2	-6
40	CSc1ccc(OC2CCCCC2NS(=O)(=O)c2ccccc2)cc1 (stereo unspecified)	i	2	-3	-4
41	COc1ccc2nc(NC(=O)c3cccc(S(=O)(=O)N4CCOCC4)c3)sc2c1	i	-12	3	-7
42	O=C(/C=C/c1cccs1)NNC(=O)c1ccccc1	·	·	0	-4
43	Cc1ccc(S(=O)(=O)N(CCC#N)C2CCCCC2)c2nsnc12	i	4	0	3
44	COc1ccc(CNC(=O)CN(C(=O)c2csnn2)c2cnc3ccccc3c2)cc1	i	-5	-1	10
45	CCOc1ccccc1C=NNC(=O)C(=O)NN=Cc1ccccc1OCC	·	·	0	4

item	Env fusion inh	Yeast UUG start	PABP polyA inh	CSC inhib
31	14	-15	-13	-16
32	-16	-22	-1	-5
33	-17	·	-3	2
34	10	-7	6	·
35	-8	·	6	23
36	-9	-8	4	17
37	6	-7	-2	-8
38	-5	·	5	-11
39	-142	-2	3	1
40	14	·	-10	-6
41	-48	-10	2	7
42	-23	-13	·	·
43	-4	6	6	-16
44	13	-12	6	-9
45	-7	-18	·	·

The list continues.
item	compound	Rce1 inh	eIF4H inh	MT1-MMP act inh	MT1-MMP act inh RFP
46	CNC(=S)N1CCN(C(=O)c2ccco2)CC1	i	3	4	4
47	COc1cccc(NC(=O)CSc2nc(=O)n(CCN(C)C)c3c2CCCC3)c1	i	·	-3	-1
48	CN=C1c2c(-c3ccccc3)c3cc(OC)ccc3n2CCN1C	i	1	-2	1
49	CS(=O)(=O)c1ccccc1-c1nnc(NC(=O)c2ccco2)o1	i	·	-2	4
50	COc1ccc(-n2ncc3c(NCc4cccnc4)ncnc32)cc1	i	-7	0	-7
51	CCc1ccc(OCC(=O)c2c(O)c3ccccc3oc2=O)cc1	i	24	-2	3
52	Cc1ccc(NC(=O)CCC(=O)c2cccs2)cc1F	i	-4	-1	-5
53	CCN(CC)C(CNC(=O)CSc1nnnn1-c1c(C)cccc1C)c1ccco1 (stereo unspecified)	·	·	0	5
54	CC(=O)N1CN(Cc2ccccn2)Cc2c1sc1c2CCCC1	i	9	3	5
55	O=[N+]([O-])c1ccccc1OCc1nc(-c2cccs2)no1	i	2	7	7
56	O=C1CN(C(=O)COC(=O)c2c(F)cccc2Cl)c2ccccc2N1	·	·	-3	2
57	CCCCn1c(=O)[nH]c(=O)c2c1nc(-c1cc(Cl)c(OC)c(OC)c1)n2C	i	-16	0	0
58	O=C(CN1CCOCC1)Nc1ccccc1Sc1ccc(Cl)cc1	·	-3	-1	-4
59	O=C(CSc1nc(C2CCCCC2)n(-c2ccccc2)n1)NCC(F)(F)F	i	6	-2	-3
60	Cc1nc2ccccc2c(=O)n1NC(=O)c1ccc([N+](=O)[O-])cc1Cl	i	8	-5	-4

item	Env fusion inh	Yeast UUG start	PABP polyA inh	CSC inhib
46	-5	-11	37	0
47	13	-16	·	-18
48	·	·	-2	-6
49	-7	3	·	12
50	-50	-22	-12	-7
51	-1	·	4	-8
52	-4	-20	-9	6
53	12	-7	·	·
54	·	-27	13	-8
55	-160	·	-16	·
56	·	7	·	-14
57	-10	-9	-7	5
58	7	6	-12	-6
59	·	·	5	-6
60	5	·	-7	·

The list goes on.
item	compound	Rce1 inh	eIF4H inh	MT1-MMP act inh	MT1-MMP act inh RFP
61	COC(=O)c1c(NC(=O)C2C3C=CC(CC3)C2C(=O)O)sc(C)c1C (stereo unspecified)	i	4	-4	2
62	Nc1nc(N)nc(Cc2ccccc2O)n1	·	·	-2	3
63	CC(C)COC(=O)N1CCCCC1c1cc(C(=O)NC(C)C)no1 (stereo unspecified)	·	·	6	1
64	CCOC(=O)c1cnc(SCC(=O)NCc2ccco2)nc1N	i	0	7	3
65	O=C(Nc1ccc(Cl)c(Cl)c1)N1CCC(N2CCCCC2)CC1	i	-4	1	6

item	Env fusion inh	Yeast UUG start	PABP polyA inh	CSC inhib
61	13	-19	8	2
62	-13	-7	·	-14
63	-3	-12	·	·
64	-120	-10	-1	0
65	·	29	-12	-19
